# Source: PubChem (National Center for Advancing Translational Sciences (NCATS))
# PINK1 modulator: PINK1 expression modulation; PINK1 immunofluorescence, high-content cytometry, 24 h; Potency, µM (doses to about 76.6 µM), without a hit: top-dose activation (PINK1 increase), hits mostly activators; hit rate 0.2% among 410,000; active = well fitted activation curve with a large enough effect; inconclusive = small, poorly fitted or top-dose-only effect; inactive = flat fitted curve, though single readings scatter; cell line not stated here;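 also: % of control where 0% means no effect; nearly all actives have a fitted effect of over 65% in size; a mitochondrial uncoupler was the plate control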
#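 Measures PINK1 amount and localization on or inside mitochondria by immunofluorescence. Stable cells get compounds at 5 concentrations for 24 hours before fixation and staining; CCCP controls included.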
# ClpP mod: qHTS Assay for Activators of ClpP. Potency, µM (series often up to 57.5 µM), for inactives: top-dose activity change, negative = active. AID 651965, 2013. hit rate 1.9% among 340,000. purified B. subtilis ClpP, FRET peptide cleavage, 20 min; active = well fitted falling curve with a large enough effect; inconclusive = small, poorly fitted or top-dose-only effect; inactive = no such curve, though single readings can be large or run the other way; also: the source files actives as falling curves though it sought activators and does not explain the sign; nearly all actives have a fitted effect of over 65% in size; many hits overshoot -100%
# Target sequence (P80244 whole entry, looked up): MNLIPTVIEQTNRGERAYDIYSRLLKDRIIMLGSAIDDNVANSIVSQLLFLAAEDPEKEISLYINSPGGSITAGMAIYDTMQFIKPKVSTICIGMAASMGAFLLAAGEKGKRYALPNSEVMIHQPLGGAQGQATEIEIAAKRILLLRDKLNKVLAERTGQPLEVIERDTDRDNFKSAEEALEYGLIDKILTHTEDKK
#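 Buffer: 100 mM Tris/HCl pH8, 100 mM KCl, 0.05% low protease BSA, 2.5% glycerol, 0.01% Tween-20. ClpP 10 microg/mL final; 20 min RT; delta FRET normalized to ADEP and DMSO controls.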
# * = called active by the depositor; ? = inconclusive. Potency is read from the fitted curve at half-maximal effect. Only part of the results is shown; rates above refer to the full screens.
# The line under a structure holds: PINK1 modulator | ClpP mod
CC(C)Oc1ccc(C(=O)N2CCN(CCc3ccccn3)CC2)cc1
→ 0.4% | -1.3%
CC(C)(C)OC(=O)N1CCC(c2c(C(=O)N3CCN(C(=O)c4ccco4)CC3)cnn2-c2ccccc2Cl)CC1
→ -1.2% | -1.9%
CCN(CC)S(=O)(=O)c1ccc2c(c1)N(CC(=O)N1CCN(c3cccc(Cl)c3)CC1)C(=O)CO2
→ -0.3% | 1.1%
CC(C)CC1OC(C)CC2=C1C(=O)OC(C)(C)O2 (stereo not given)
→ 4.0% | 0.8%
Cc1cc(C)c(S(=O)(=O)Nc2ccc(-c3ccc(N4CCC(C)CC4)nn3)cc2)cc1C
→ -0.4% | -5.3%
Cc1ccc2nc(Nc3cccc(Cl)c3C)c(-n3nc(C)cc3C)nc2c1
→ 2.2% | -1.3%
Cn1c(SCCOc2ccccc2)nnc1-c1ccc(NC(=O)CCc2ccccc2)cc1
→ -0.3% | 6.6%
O=C(CN(c1ccc(Cl)c(C(F)(F)F)c1)S(=O)(=O)c1ccccc1)N1CCc2ccccc2C1
→ 1.2% | 1.5%
CC(C)COC(=O)Cn1nnc2sc(-c3ccccc3)cc2c1=O
→ 3.6% | -21%
CCc1ccc(NC(=O)Cn2cc(S(=O)(=O)c3ccc(F)cc3)c(=O)c3cc(OC)ccc32)cc1
→ 0.1% | -17%
CCOC(=O)c1cccc(NC(=O)Cn2c(=O)nc(-c3ccccc3)c3ccccc32)c1
→ -2.0% | -1.6%
Cc1ccc(N2CCn3c2nc2c3c(=O)n(C/C=C/c3ccccc3)c(=O)n2C)cc1C
→ -0.8% | ?
Cc1c2cnn(-c3ccccc3)c(=O)c2c(C)n1CC(=O)NCc1ccccc1Br
→ 1.0% | 0.3%
COc1ccccc1CNC(=O)Cn1c(-c2cccs2)cc2cc(F)ccc21
→ 6.6% | 32µM*
COc1ccccc1NC(=O)c1c(NCc2sccc2C)sc2c1CCCCC2
→ 3.8% | 0.1%
O=C(NCC1CCN(Cc2ccccc2Cl)CC1)c1cc2ccc3cccnc3c2[nH]1
→ 3.9% | 2.7%
Cc1ccc(CNC(=O)Cn2c(=O)n(Cc3ccccc3)c(=O)c3sc4ccccc4c32)cc1
→ 0.3% | ?
CCc1nc2ccc(C(=O)NCc3ccc(N(C)C)cc3)cc2nc1CC
→ -0.1% | -2.8%
Cc1ccc2c(c1)c(=O)c1ccccc1n2CCCC(=O)Nc1ccc(C)c(C)c1
→ -0.7% | 4.4%
COC(=O)c1cc2sc(Cl)cc2n1CC(=O)Nc1cc(OC)cc(OC)c1
→ 2.6% | -1.1%
COC(=O)CSc1ncc2c(n1)-c1ccccc1N(Cc1ccc(Cl)cc1)S2(=O)=O
→ 0.9% | -5.3%
CCN(Cc1ccccc1)C(=O)Nc1ccc2c(c1)N(C)C(=O)c1ccccc1S2
→ 3.4% | -1.2%
O=C(NCCc1ccc(O)c(Br)c1)c1ccc(Br)o1
→ -0.9% | -1.5%
COc1ccc(-c2cc(C(=O)Oc3cccc(C)c3)c3cc(C)ccc3n2)cc1
→ 1.2% | 0.4%
COC(=O)CN1C(=O)CSc2ccc(S(=O)(=O)N3CCOCC3)cc21
→ 1.4% | 0.6%
O=c1oc2ccccc2cc1-c1cn2cc(Cc3ccc(Br)cc3)sc2n1
→ 4.1% | -9.5%
CCOc1ccc(CCN2C(=O)C(=O)N([C@@H](CC(C)C)CN3CCC[C@H]3CN3C(=O)C(=O)NC[C@@H]3CC(C)C)C[C@@H]2Cc2ccc(O)cc2)cc1
→ -0.6% | -3.1%
CCN(c1ccc(C)cc1C)S(=O)(=O)c1nnc(NC(=O)c2ccccc2OC)s1
→ -0.3% | -26%
COc1ccc(NC(=O)Cn2c(=O)n(CCc3ccccc3)c(=O)c3c4c(sc32)CCCC4)cc1
→ 3.3% | 0.1%
COc1ccc(Cn2c(CCC(=O)Nc3cc(C)cc(C)c3)nc3cccnc32)cc1
→ 10% | 2.8%
Cc1ccc(NC(=O)C2CCN(c3nc(-c4ccc(C(C)C)cc4)no3)CC2)c(Cl)c1
→ 0.6% | -1.4%
Cc1cccc(C)c1Nc1nc2ccccc2nc1NS(=O)(=O)c1ccccc1
→ -1.1% | -18%
O=C(NCCc1ccc(Cl)cc1)c1ccc2c(c1)N(Cc1c(F)cccc1Cl)C(=O)CS2
→ 4.1% | 2.5%
CCOc1ccccc1NC(=O)c1ccc2c(c1)CCN2S(C)(=O)=O
→ 0.9% | 0.6%
CC(=O)Nc1ccc(NC(=O)C2CCCN2S(=O)(=O)c2ccc3c(c2)CCCC(=O)N3)cc1 (stereo not given)
→ 3.0% | -0.7%
CCOC(=O)c1noc2nc(C)n(CC(=O)Nc3ccc(OC)c(Cl)c3)c(=O)c12
→ -0.8% | 1.5%
Cc1c(Cl)cccc1NS(=O)(=O)c1ccc(-c2cnc(C3CC3)o2)cc1
→ 0.0% | -17%
COc1cccc(NC(=O)Cn2c(=O)n(-c3ccccc3)c(=O)c3c4c(sc32)CCCC4)c1
→ 2.9% | -0.1%
O=C1COc2ccc(-c3csc(-c4ccc(Cl)cc4)n3)cc2N1
→ 6.0% | 3.4%
Cc1ccccc1Nc1c(-c2cccc(O)c2)nc2ccc(Br)cn12
→ 1.8% | -13%
CC(C)c1ccc(NC(=O)c2cc3c(=O)[nH]c4ccccc4c3n2C)cc1
→ 2.6% | -5.7%
CCCOc1cccc(C(=O)Nc2ccc(-c3nc4ccccc4o3)cc2)c1
→ 9.6% | 4.1%
CC1CCN(S(=O)(=O)c2ccc3c(ccn3CCC(=O)NCc3ccccc3F)c2)CC1
→ -2.8% | -2.7%
COc1ccc(OCC(=O)Nc2ccc3c(c2)N(C)C(=O)c2ccccc2S3)cc1
→ -0.3% | -4.1%
COc1ccccc1N1CCN(CCCNC(=O)c2cnn(-c3ccccc3Cl)c2C2CCN(C(=O)OC(C)(C)C)CC2)CC1
→ -0.7% | -0.4%
COC(=O)c1scc(-c2ccc(C)cc2)c1S(=O)(=O)N1CCN(c2ccc(C)cc2C)CC1
→ 6.2% | 1.2%
Cc1ccc2nc(CN3CCN(C(=O)Nc4ccc(F)cc4)CC3)oc2c1
→ 0.0% | 0.1%
CCOc1ccc(Oc2nc(NC)nc(N3CCOCC3)n2)nn1
→ 2.5% | 1.2%
Cc1ccc(N2CCN(C(=O)C3CCC(CNS(=O)(=O)c4ccc(Br)s4)CC3)CC2C)cc1 (stereo not given)
→ -0.8% | -2.3%
Cc1ccc(S(=O)(=O)N2CCCc3cc(NS(=O)(=O)c4ccc(F)cc4)ccc32)cc1
→ 20% | -0.1%
COc1ccc(-c2oc3ncn4nc(-c5ccccc5O)nc4c3c2-c2ccc(OC)cc2)cc1
→ 1.1% | -20%
Cc1cccc2c1-c1sc(C(=O)NCc3ccc(Cl)cc3)cc1CO2
→ 1.7% | 4.6%
COC(=O)c1ccc2nc(-c3cccc(Cl)c3)c(Cc3cccc(F)c3)n2c1
→ -0.7% | ?
CC1CCCN(C(=O)c2cc3c(Cl)nc4ccccc4c3s2)C1 (stereo not given)
→ 7.8% | 0.6%
COc1ccc(-c2nc3cc(NC(=O)CSc4ccc(C)cc4)ccc3o2)cc1
→ 2.9% | 4.2%
O=C(COc1ccccc1F)Nc1ccc(C(=O)OCc2cc(=O)n3nc(C4CC4)sc3n2)cc1
→ -2.0% | 0.0%
Cc1ccc(NC(=O)CSc2nnc(-c3cc4occc4n3C)n2-c2ccccc2C)c(C)c1
→ -1.5% | -14%
Cn1c(C(=O)N2CCC(C(=O)N3CCN(c4ccccc4)CC3)CC2)cc2sccc21
→ -1.2% | -1.5%
CCOc1ccc(OCC)c(NC(=O)C(NS(=O)(=O)c2cccs2)c2ccccc2)c1 (stereo not given)
→ 8.4% | 0.8%
CCCc1nc(SCc2cc(=O)c3ccc(C)c(C)c3[nH]2)n[nH]1
→ 1.7% | -2.3%

# (next part)
# The line under a structure holds: PINK1 modulator | ClpP mod
O=S(=O)(c1ccc(F)cc1)N(Cc1nc(-c2ccccc2)no1)C1CCCCC1
→ 5.4% | -1.1%
Cc1ccc(C2CCN(C(=O)Nc3ccc(Cl)cc3)C2)cc1 (stereo not given)
→ 1.7% | 0.7%
O=C(CSc1nnc2[nH]c(=O)cc(-c3ccccc3)n12)Nc1ccc(F)cc1F
→ 3.4% | 4.4%
Cc1ccc(Cn2c(CN3CCC(C(=O)O)CC3)cc3ccccc32)cc1
→ 1.4% | -2.7%
CCOc1ccc(NC(=O)CCc2nc3cccnc3n2Cc2ccc(OC)cc2)cc1
→ 5.2% | -0.1%
O=C(COC(=O)C12CC3CC(CC(Br)(C3)C1)C2)NCc1ccco1
→ -0.3% | -0.3%
CC(=O)c1ccc(NC(=O)CCc2nc(-c3ccc(C)cc3)no2)cc1
→ 4.1% | -0.3%
CCOC(=O)c1c(C)[nH]c(CCC(=O)Nc2ccc(N(CC)CC)cc2C)c1C
→ -0.1% | -3.6%
COc1ccc(OC)c(C2CC(=O)c3c([nH]c(C(=O)OCc4ccc(C)cc4)c3C)C2)c1 (stereo not given)
→ 11% | -2.5%
O=C(Nc1ccc([N+](=O)[O-])cc1)OC1CCS(=O)(=O)C1 (stereo not given)
→ 0.3% | 0.1%
O=C(COc1ccc([N+](=O)[O-])cc1)Nc1nc2c(s1)CCCC2
→ 1.5% | -1.7%
COc1cc(OC)c(Nc2nc3ccc(C(=O)c4ccccc4)cc3n3c(C)nnc23)cc1Cl
→ 4.1% | -0.2%
COc1ccc(CNC(=O)C(=O)NCC(c2ccc3c(c2)OCO3)N2CCOCC2)cc1 (stereo not given)
→ -0.4% | -1.9%
COc1ccc(N(C)C(=O)c2nn(-c3ccc(C)cc3)c(=O)n(C)c2=O)c(OC)c1
→ -1.0% | -0.5%
COc1ccc(C2CC(=O)Nc3c2c(=O)nc2c(C)cccn32)cc1OC (stereo not given)
→ 0.2% | -1.1%
CC1CCN(C(c2ccccc2)c2sc3nc(-c4ccco4)nn3c2O)CC1 (stereo not given)
→ -0.7% | -1.6%
COc1cc(OC)c(NS(=O)(=O)c2c(C(=O)N3CCC(C)CC3)c(C)n(C)c2C)cc1Cl
→ -1.7% | -0.4%
Cc1ccc(NC2=C(c3ccc(C(F)(F)F)cc3)C(=O)c3ccccc32)cc1F
→ 1.0% | 1.3%
CCS(=O)(=O)N1CCc2cc(C(=O)Nc3cc(Cl)ccc3C)ccc21
→ 0.9% | 52%
COc1ccc2cc(C(=O)NCc3ccc4c(c3)CCN4C(=O)c3ccccc3)[nH]c2c1
→ 2.4% | -3.0%
COC(=O)C(CCSC)NC(=O)c1cc2c(n(-c3ccc(C)cc3)c1=O)CC(C)(C)CC2=O (stereo not given)
→ 0.6% | 3.2%
CC(=O)Nc1cccc(C(=O)NCc2ccc3c(c2)CCN3C(=O)c2ccccc2)c1
→ -0.9% | -3.5%
CNC(=O)c1cc2c(n(-c3ccc(C)cc3)c1=O)CC(C)(C)CC2=O
→ -2.9% | 3.9%
CCC(=O)Nc1ccccc1-c1nc2ccccc2n(CC(=O)c2ccc(C)cc2)c1=O
→ 0.3% | -0.2%
O=C(C1COc2ccccc2O1)N(Cc1cccnc1)c1nc2c(Cl)cccc2s1 (stereo not given)
→ 1.5% | -6.3%
O=C(COc1ccccc1Cl)Nc1ccc2nc(SCC(=O)N3CCOCC3)sc2c1
→ 2.7% | 30%
CCOC(=O)c1ccc(NC(=O)c2ncn(-c3ccccc3)n2)cc1
→ 0.0% | 3.7%
CC1(C)CC(=O)c2cc(C#N)c(=O)n(-c3ccc(Cl)cc3)c2C1
→ 3.3% | 4.3%
CCCn1c2ccccc2c2cnn(CC(=O)NCc3ccccc3Cl)c(=O)c21
→ 8.5% | ?
CCN(CC)c1nc(-c2ccc(C(C)(C)C)cc2)nc2ccccc12
→ 3.2% | -8.2%
Cc1ccc2nc(-c3ccc(C)c(NC(=O)COc4ccc(Cl)cc4)c3)oc2c1
→ 2.8% | 4.2%
Cc1c(Cl)cccc1NC(=O)c1cnc2sc(N3CCOCC3)nn2c1=O
→ 1.0% | -4.5%
COc1ccc(CNC(=O)CN(c2ccccc2OC)S(=O)(=O)c2ccc(C)cc2)cc1
→ 0.7% | -1.2%
CSc1ccc(CCNC(=O)CCCn2c(=O)c3cccn3c3ccccc32)cc1
→ 0.5% | -6.6%
CCC(C)NC(=O)c1nn(-c2ccc(C)cc2)nc1CO (stereo not given)
→ -0.9% | ?
COc1ccc(OC)c(S(=O)(=O)N2CCC(n3c(C)nc4cccnc43)CC2)c1
→ 1.3% | -0.3%
CCOC(=O)Cc1ccc(NC(=O)n2ncc3c(C)cccc32)cc1
→ 2.8% | 4.9%
Cc1cc(C)n(CCc2nc3c4ccccc4nc(SCc4ccc(Cl)cc4)n3n2)n1
→ 1.7% | -3.3%

# Entries of single compounds, looked up by structure. Order of screens: PINK1 modulator | ClpP mod
# CCc1nc2ccc(C(=O)NCc3ccc(N(C)C)cc3)cc2nc1CC reads -0.1% | -2.8%
# O=C(COc1ccccc1F)Nc1ccc(C(=O)OCc2cc(=O)n3nc(C4CC4)sc3n2)cc1 reads -2.0% | 0.0%
# O=C(NCCc1ccc(O)c(Br)c1)c1ccc(Br)o1 reads -0.9% | -1.5%
# Cc1c2cnn(-c3ccccc3)c(=O)c2c(C)n1CC(=O)NCc1ccccc1Br reads 1.0% | 0.3%
# O=S(=O)(c1ccc(F)cc1)N(Cc1nc(-c2ccccc2)no1)C1CCCCC1 reads 5.4% | -1.1%
